TRPML1 blocker = human mucolipin-1 channel inhibition. TRPML1-inducible cells, Ca2+ dye fluorescence, FDSS; stronger effect = lower value; inhibition of EC80 agonist-evoked calcium signal. activity change, negative = inhibition, % (test concentration not listed). hit rate 0.02% among 390,000. AID 624415; in the data active means activity change below about -50%; inconclusive means about -30% to -50%; inactive means above about -30%;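 note: stimulus is agonist 54-4 at its EC80 concentration; % is set by controls: 0 for no effect and ±100 for the full control effect; compound concentration not given in the record; the text of the record puts the active cut at -80%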
Target sequence (Q9GZU1 whole entry, looked up): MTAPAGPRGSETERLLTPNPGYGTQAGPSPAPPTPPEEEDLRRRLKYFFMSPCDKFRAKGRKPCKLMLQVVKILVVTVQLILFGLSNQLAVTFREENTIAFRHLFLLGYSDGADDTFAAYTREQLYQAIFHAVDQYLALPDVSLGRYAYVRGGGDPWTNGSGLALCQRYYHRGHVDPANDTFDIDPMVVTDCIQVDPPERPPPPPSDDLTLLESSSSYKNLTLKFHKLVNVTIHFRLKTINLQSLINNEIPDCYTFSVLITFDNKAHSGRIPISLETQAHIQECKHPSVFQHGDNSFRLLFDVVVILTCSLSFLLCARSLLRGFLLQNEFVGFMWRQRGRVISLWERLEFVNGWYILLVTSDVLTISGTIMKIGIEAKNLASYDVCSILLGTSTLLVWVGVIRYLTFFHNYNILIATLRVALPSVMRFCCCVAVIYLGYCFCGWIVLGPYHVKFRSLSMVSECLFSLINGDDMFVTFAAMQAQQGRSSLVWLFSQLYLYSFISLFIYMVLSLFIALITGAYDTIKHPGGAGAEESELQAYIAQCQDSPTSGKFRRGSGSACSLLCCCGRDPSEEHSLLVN
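TRPML1-DL cells, Tet-induced overnight (~16 h, 37 °C) at 1,500 cells/well, were loaded with Ca8 no-wash dye plus quencher for 45-90 min at room temperature. Compounds were pinned during FDSS kinetic reading; agonist 54-4 at EC80 (4 uM final) then added.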
PINK1 modulator = changes PINK1 expression; Potency, µM (doses to about 76.6 µM), without a hit: at the highest dose activation (PINK1 increase), hits mostly activators; hit rate 0.2% among 410,000; AID 624263; PINK1 immunofluorescence, high-content cytometry, 24 h; active = well fitted activation curve with a large enough effect; inconclusive = small, poorly fitted or top-dose-only effect; inactive = flat fitted curve, though single readings scatter; cell line not stated here;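 note: potency is the fitted concentration of half-maximal effect; % of control where 0% means no effect; nearly all actives have a fitted effect of over 65% in size; a mitochondrial uncoupler was the plate control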
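Stable cell line, 250 cells/well, 12 h attachment; compounds pinned at 5 concentrations, 24 h; CCCP control. Fixed with nuclear dye, primary antibodies 12 h at 10 degrees C, secondary plus cell stain; laser-scanning cytometer read.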
Six1-Eya2 blk = inhibitors of human Six1/Eya2 interaction | Q15475+O00167 | AlphaScreen GST-Six1/His-Eya2 binding, biochemical; stronger effect = lower value; control for the full effect not named in the record | activity change, % (test concentration not listed) | hit rate 0.56% among 360,000; in the data active = activity change below about -65%; inconclusive = about -30% to -65%; inactive = above about -30%; note: % is set by controls: 0 for no effect and ±100 for the full control effect; compound concentration not given in the record
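GST-Six1 + His-Eya2 (5X stock: 250/500 nM); Tris pH 8.0, 300 mM NaCl, 0.05% BSA, 0.02% Tween 20; GSH donor/Ni acceptor beads; 1 h 37 °C dark; AlphaScreen readout.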
CtBP-E1A blk = CtBP/E1A binding inhibition | AlphaScreen GST-E1A/His-CtBP binding, 1536-well; stronger effect = lower value; control for the full effect not named in the record | activity change, % (test concentration not listed) | hit rate 0.49% among 340,000; in the data active means activity change below about -65%; inconclusive means about -30% to -65%; inactive means above about -30%; note: % is set by controls: 0 for no effect and ±100 for the full control effect; compound concentration not given in the record
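In 5 uL wells, 23 nL compound meets equimolar GST-E1A and His-CtBP (5X stock 125 nM each) for 2 h, 37 °C. Beads (5X, 50 ug/mL) then 1 h, 37 °C, dark.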
D2 ag = agonists of human D2 dopamine receptor (beta-arrestin) | P14416 | DiscoveRx PathHunter D2 beta-arrestin, luminescence, 90 min; 100% = 57 uM dopamine signal | activation, % (concentration not given with the values) | hit rate 0.084% among 360,000 | AID 624465; in the data active = activation above about 40%; inconclusive = about 15% to 40%; inactive = below about 15%; note: compound concentration not given in the record; the text of the record calls up to 30% inactive
Target sequence (P14416 whole entry, looked up): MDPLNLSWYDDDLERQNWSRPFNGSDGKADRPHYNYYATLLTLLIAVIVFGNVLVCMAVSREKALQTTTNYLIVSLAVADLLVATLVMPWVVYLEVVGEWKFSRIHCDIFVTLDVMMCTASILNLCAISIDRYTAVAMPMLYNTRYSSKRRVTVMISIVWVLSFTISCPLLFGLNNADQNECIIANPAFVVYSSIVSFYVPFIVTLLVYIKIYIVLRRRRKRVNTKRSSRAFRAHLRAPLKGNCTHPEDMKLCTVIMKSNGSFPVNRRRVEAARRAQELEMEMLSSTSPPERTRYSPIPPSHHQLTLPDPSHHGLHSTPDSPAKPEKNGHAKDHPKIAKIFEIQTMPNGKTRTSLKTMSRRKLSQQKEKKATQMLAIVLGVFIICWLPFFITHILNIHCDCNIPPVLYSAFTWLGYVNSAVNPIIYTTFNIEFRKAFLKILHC
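DiscoveRx PathHunter D2 beta-arrestin cells (2,100/well) attached overnight, then compound-stimulated 90 min at 37 C in HBSS/10 mM HEPES/0.1% Tween-20 buffer; beta-galactosidase complementation read by luminescence after 1 h at ambient temperature. Dopamine 57 uM final (EC100) as control.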
TRPML1 ag = human mucolipin-1 channel agonism. Q9GZU1. TRPML1-expressing cells, Ca2+ dye fluorescence, FDSS; host cell line not named in the record; reference of the full effect not given here. activation, % (no concentration beside the values). hit rate 0.12% among 410,000. AID 624414; in the data active = activation above about 50%; inconclusive = about 30% to 50%; inactive = below about 30%; note: 0% is about no effect; the text of the record puts the active cut at 80%
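Calcium fluorescence on an FDSS kinetic reader gave the read-out. Tet-induced TRPML1-DL cells were plated overnight, dye-loaded (Ca8 with quencher, 45-90 min, room temperature, dark), then read 110 s after compound addition, and again 110 s after 4uM final 54-4 (EC80).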
* marks the source's active call; other numbers are inactive results; ? = inconclusive; · = no result given; [ ] = remark or other dose. Not a hit list; about 1% have a hit in one of these screens.

smiles	TRPML1 blocker	PINK1 modulator	Six1-Eya2 blk	CtBP-E1A blk	D2 ag	TRPML1 ag
Cc1ccc(CN(C#N)c2nc(C)cc(C)n2)cc1	4	-0.5%	10	9	-0.6	0.7
CN(CC(=O)Nc1ccccc1Cl)C(=O)c1ccc(-c2cccc(C(F)(F)F)c2)o1	19	1.9%	-10	-1	0.0	3.4
Cn1c(-c2cccc([N+](=O)[O-])c2)cnc1NCc1cccc(F)c1	·	3.8%	-9	·	-1.2	·
C/C(=N\Nc1ncnc2sc(C)c(C)c12)c1ccccn1	-24	12%	-73*	-94*	-4.4	58*
COc1ccc(CNC(=O)COc2ccc(S(=O)(=O)N3CCCCC3)cc2Cl)cc1	45	2.7%	-1	2	7.4	1.1
CCOC(=O)c1c[nH]c(=S)n(-c2ccccc2)c1=O	2	-0.1%	1	5	-4.1	-0.4
COc1ccccc1NC(=O)C1CCN(S(=O)(=O)c2ccc3c(c2)CC(C)N3C(C)=O)CC1 (configuration not stated)	-7	-0.9%	-1	-12	-9.8	-1.1
O=C(COc1cccc(C(F)(F)F)c1)N1CCN(c2ccc(O)cc2)CC1	-1	-0.5%	12	0	9.0	-0.2
Cc1ccc2cc3c(NC(=O)c4cccnc4)nn(C)c3nc2c1	41	4.8%	-3	8	1.1	-0.3
O=C(NCCn1cccn1)C1CCC(=O)N(CCc2ccc(Cl)cc2)C1 (configuration not stated)	?	-1.1%	0	-1	-3.4	-0.3
O=C(Cc1ccccc1)N1CCC(c2ccccc2)C1 (configuration not stated)	-1	2.1%	-5	0	-6.0	-0.2
Cc1cc(-c2n[nH]c(=S)o2)c(C)n1-c1ccccc1	4	1.4%[38.3 µM]	-7	4	-5.2	0.1
CC12CCC(c3c(C(=O)N4CCOCC4)nn(-c4ccccc4)c31)C2(C)C (configuration not stated)	2	-2.2%	-3	1	-1.8	-0.3
CC(C)Cn1c(=O)c2ccccc2n2c(CCC(=O)NCc3ccc(Cl)cc3)nnc12	-7	1.1%	·	·	·	2.4
CNC(=S)N(CCc1c(C)[nH]c2ccc(Cl)cc12)Cc1cc(OC)c(OC)c(OC)c1	22	24%	-18	-16	5.3	1.2
CCc1ccc(-n2c(SCc3cc(=O)n4cc(Br)ccc4n3)nc3[nH]ncc3c2=O)cc1	-5	-2.5%	-3	2	-0.6	5.3
NNC(=O)c1cc2cc(OC(F)(F)F)ccc2[nH]1	3	1.5%	-10	1	7.0	0.1
O=c1nccc(Nc2ccccc2)[nH]1	0	-0.6%	4	·	2.6	3.6
O=C(COC(=O)c1cc(=O)[nH]c(=O)[nH]1)NCc1ccccc1	28	0.2%	2	1	4.0	0.5
CN(C)CCCNC1=CC(=O)OC12CCCCC2	7	0.9%	26	30	-1.7	-0.6
CCOC(=O)[C@]12CCC=C1N(Cc1ccco1)C(=O)[C@H](CC(=O)N1CCCC1)C2	·	0.7%	2	-2	·	-0.3
O=C(CN(C(=O)CNC(=O)c1cccs1)c1ccc(F)cc1)NC1CCCCC1	9	0.2%	1	0	2.1	1.0
Cc1ccn2c(NC3CCCCC3)c(C(C)C)nc2c1	-2	0.6%	-2	2	0.2	0.7
C[C@H]1CN([C@@H](C)CO)C(=O)CCCn2nncc2CO[C@@H]1CN(C)Cc1ccc(Cl)c(Cl)c1	10	0.9%	-1	4	-3.4	-0.3
N#CC1=C(SCC(=O)c2ccc(Br)cc2)NC2=C(C(=O)CCC2)C1c1ccco1 (configuration not stated)	39	-1.0%	-17	-8	-0.8	-0.9

Looked up above.
CC(C)Cn1c(=O)c2ccccc2n2c(CCC(=O)NCc3ccc(Cl)cc3)nnc12 | TRPML1 ag: 2.4
CCOC(=O)[C@]12CCC=C1N(Cc1ccco1)C(=O)[C@H](CC(=O)N1CCCC1)C2 | CtBP-E1A blk: -2
O=C(CN(C(=O)CNC(=O)c1cccs1)c1ccc(F)cc1)NC1CCCCC1 | Six1-Eya2 blk: 1
CCOC(=O)c1c[nH]c(=S)n(-c2ccccc2)c1=O | TRPML1 blocker: 2
CCc1ccc(-n2c(SCc3cc(=O)n4cc(Br)ccc4n3)nc3[nH]ncc3c2=O)cc1 | TRPML1 blocker: -5
O=C(COc1cccc(C(F)(F)F)c1)N1CCN(c2ccc(O)cc2)CC1 | PINK1 modulator: -0.5%
CC12CCC(c3c(C(=O)N4CCOCC4)nn(-c4ccccc4)c31)C2(C)C (configuration not stated) | TRPML1 blocker: 2

The list continues:
smiles	TRPML1 blocker	PINK1 modulator	Six1-Eya2 blk	CtBP-E1A blk	D2 ag	TRPML1 ag
CCCCNC(=O)c1onc(CSc2ccccc2)c1C(=O)O	-5	0.9%	0	7	1.0	-0.5
Cc1ccc(S(=O)(=O)Nc2ccc(N3CCN(C)CC3)nc2)cc1	-12	-1.0%	13	-13	-6.9	0.1
NC(Cc1ccc(Cl)cc1)c1csc(NC(=O)NCC2CCCCC2)n1 (configuration not stated)	·	-1.3%	0	-13	?	0.2
COc1ccc(C2=C(C)C(=NCc3ccc(OC(C)C)cc3)NS2(=O)=O)cc1	16	3.4%	·	·	·	0.5
Nn1c(SCC(=O)Nc2nccs2)nnc1C1CC1	30	-1.3%	-2	-6	-3.0	0.2
Cn1c(CC(=O)Nc2ccc(Cl)c(Cl)c2)n[nH]c1=S	6	-0.4%	1	-2	-0.3	0.1
COc1ccc(C(C)(O)c2nc(-c3ccc4c(c3)OCO4)cs2)cc1 (configuration not stated)	-8	4.4%	-8	-8	-2.8	0.6
O=C(O)c1ccc(-n2cncn2)c([N+](=O)[O-])c1	9	-0.1%	6	-3	-0.4	-0.6
CC(/C=N/NC(=O)c1sc(N)nc1C)=C\c1ccccc1	6	9.1%	0	7	3.2	-1.0
CCN(CC)CCCNC(=O)CNC(=S)N(CCCN1CCOCC1)Cc1cccs1	-2	1.4%	1	3	0.2	-0.4
CCOC(=O)Cn1nnnc1CN(Cc1ccccc1)Cc1cc2cc(CC)ccc2[nH]c1=O	-5	·	-5	7	2.4	1.1
CCn1nc(C(=O)Nc2ccc(S(=O)(=O)Nc3ncccn3)cc2)c2ccccc2c1=O	0	2.3%	1	-17	-6.3	-1.2
O=C(CSC1=NS(=O)(=O)c2cc(Cl)ccc2N1)NCc1ccc(F)cc1	-3	1.6%	7	11	-0.2	-0.2
O=C(CSc1n[nH]c(-c2ccccc2)n1)NCCCc1ccccc1	2	0.9%	·	·	·	0.7
O=C(NCCN1CCOCC1)c1ccc(CS(=O)(=O)Cc2ccccc2F)o1	-7	-0.3%	7	6	-1.8	0.0
COc1ccccc1Nc1cc(C)nc2nc(-c3ccccc3)nn12	16	-2.1%	·	·	·	1.2
Cc1ccccc1-n1ccnc1SCC(=O)NCC1CCCO1 (configuration not stated)	7	-1.2%	-12	3	-2.4	-0.4
CC1=NN(c2nc(-c3ccccc3)cs2)C(=O)C1N=Nc1ccccc1 (configuration not stated)	-1	5.9%	-8	-17	5.0	-0.5
COCCn1ccc2c(OCC(=O)Nc3cccc(NC(C)=O)c3)cccc2c1=O	6	-0.2%	-10	-5	-2.7	0.2
Cc1ccc(-c2noc(CCC(=O)NCCN3CCN(Cc4ccccc4)CC3)n2)cc1	-16	-1.3%	11	-3	-0.9	0.6
COC(=O)c1[nH]c2ccc(C)cc2c1NC(=O)CN1CCc2cc(OC)c(OC)cc2C1	-2	0.5%	-19	-22	-1.1	-0.7
CC(C)OCCCNC(=S)NNC(=O)C(c1ccccc1)c1ccccc1	3	0.5%	-5	9	-3.0	-0.2
CCn1nc(NC(=O)Cc2ccc(OC)cc2)c2cc3cc(C)ccc3nc21	26	4.9%	7	·	-3.2	1.3
Cc1ccc(Nc2nc3ccccc3n3cnnc23)c(Cl)c1	·	3.2%	3	-1	-4.9	·
CC(C)c1ccc(O)c(C(=O)c2cnn(-c3ccccc3)c2)c1	9	15%	-12	6	-3.2	0.7
Cc1ccc(OCC(=O)Nc2ccc(S(=O)(=O)N3CCOCC3)cc2)c([N+](=O)[O-])n1	8	1.0%	11	7	-2.2	0.2
O=C1CC(c2nc(-c3ccc(Cl)cc3)no2)CN1c1ccc2c(c1)OCCO2 (configuration not stated)	-17	0.7%	·	·	·	2.2
c1ccc(OCCn2c(COc3ccccc3)nc3ccccc32)cc1	66	1.2%	·	·	·	7.8
CCCN1C(=O)c2oc3cc(C)cc(C)c3c(=O)c2C1c1ccc(F)cc1 (configuration not stated)	-4	2.3%	·	·	·	3.0
CCOc1ccccc1-c1nc2c([nH]1)c(=O)n(C)c(=O)n2C	7	-1.0%	5	-3	-0.9	-0.8
CC(C)(C)N=C1SCC(C)(/C=N/O)S1 (configuration not stated)	7	-0.7%	3	5	-3.7	-0.8
Nc1cc(OC(=O)c2cccs2)nn1S(=O)(=O)c1ccccc1	3	-0.9%	-11	4	-3.4	3.3
Cc1cc(-c2csc(NC(=O)c3cccc(S(=O)(=O)N(C)C)c3)n2)c(C)n1-c1ccccc1	12	2.1%	-4	-1	-0.2	0.3
CCC(Nc1ccc(-c2nc(-c3ccco3)no2)cc1[N+](=O)[O-])c1ccccc1 (configuration not stated)	4	0.0%	·	·	·	0.2
CCSc1nnc(NC(=O)CSc2nc(CC)nc3c2c(=O)n(C)c(=O)n3C)s1	-4	1.8%	3	2	-2.8	0.0
COc1ccccc1Nc1nc(-c2c(C)[nH]c3ccccc23)cs1	14	14%	-12	5	-2.0	-0.1
CCOC(=O)c1ccc(NC(=O)C2CC(O)CN2S(=O)(=O)c2ccc(C)cc2)cc1 (configuration not stated)	-16	0.1%	-4	-3	3.7	2.3
O=C(Cn1cnc2c(NCc3ccccc3)ncnc21)NCCN1CCOCC1	6	-0.9%	-3	-6	-4.6	-0.4
CCOc1ccc(NC(=O)C(CC)n2nc(-c3ccc(C)c(C)c3)ccc2=O)cc1 (configuration not stated)	-11	1.0%	·	·	·	-0.2
CC(C)Cn1c(=O)[nH]c(=O)c2c(C(F)(F)F)cc(-c3ccccc3)nc21	-16	1.7%	2	·	-0.2	3.4
NC(=O)C1CCN(C(=O)COc2ccc(Nc3ccccc3)cc2)CC1	-10	-0.3%	-8	-1	3.8	-0.6

One compound at a time (already shown):
Cc1cc(-c2n[nH]c(=S)o2)c(C)n1-c1ccccc1 as listed: TRPML1 blocker = 4; PINK1 modulator = 1.4%[38.3 µM]; Six1-Eya2 blk = -7; CtBP-E1A blk = 4; D2 ag = -5.2; TRPML1 ag = 0.1
Cc1ccc(S(=O)(=O)Nc2ccc(N3CCN(C)CC3)nc2)cc1 as listed: TRPML1 blocker = -12; PINK1 modulator = -1.0%; Six1-Eya2 blk = 13; CtBP-E1A blk = -13; D2 ag = -6.9; TRPML1 ag = 0.1

Screening results deposited in PubChem BioAssay by National Center for Advancing Translational Sciences (NCATS).
